From PubChem BioAssay
rRNA inh HTS: reduced GFP signal of wild-type E. coli, primary screen, bacterial rRNA inhibitor project, GFP/RFP fluorescence, OD600, single point. GFP signal change (wild-type ribosome), % (concentration not given with the values). 350,000 tested, 1.6% active. E. coli WT GFP vs humanized-ribosome RFP mutants, 24 h; hits give low values; DMSO median 0, no signal -100;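 active = significant combined selectivity score with lowered wild-type GFP, culture density cut under 30%, mutant RFP and density less affected; inactive = any of these conditions unmet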; also: one replicate is shown; some compounds called inactive have numbers as strong as hits
rRNA inh HTS OD600: also measured in rRNA inh HTS; calls as there; OD600 change, %; measured here: OD600 growth;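 optical density of the mix in the first replicate; 0 = DMSO median and -100 = no signal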
rRNA inh HTS RFP: also measured in rRNA inh HTS; calls as there; RFP signal change, %; measured here: RFP humanized mutant strains;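 first replicate; 0 = DMSO median and -100 = no signal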
Starred values were filed as active, the others as inactive; & = joins results of further samples. The list is partial, so the mix of outcomes need not match the whole.

SMILES	rRNA inh HTS	rRNA inh HTS OD600	rRNA inh HTS RFP
COCC#Cc1ccc([C@@H]2[C@@H](CO)N3C(=O)CN(C(=O)Nc4ccc(F)cc4)C[C@H]23)cc1	-5.2	5.6	-6.9
O=S(=O)(c1cccc(F)c1)N1[C@@H]2CNC[C@H]1C2c1ccc(-c2ccncc2)cc1 (stereo partly drawn)	-0.3&-1.1	18.1&11.2	-1.4&-2.7
CC(=O)N1C[C@@H]2C(c3ccccc3)[C@@H](C1)N2CC(F)(F)F (stereo partly drawn)	-1.4	-5.6	-0.9
O=C(C1CCCC1)N1CC2(C1)[C@H](c1ccccc1)[C@@H](CO)N2CC1CCCC1	0.8	-5.9	3.9
CC(C)NC(=O)NCC[C@@H]1CC[C@@H](NS(=O)(=O)c2ccccc2)[C@@H](CO)O1	-0.3	-6.1	-1.3
O=C(NC1CCCC1)N1CC(=O)N2[C@H](C1)[C@H](c1ccc(-c3ccc(F)cc3)cc1)[C@@H]2CO	4.0	-6.6	1.6
O=C(Nc1ccc(-c2ccccc2)cc1)[C@H]1[C@H](CO)[C@H]2Cn3c(cccc3=O)[C@@H]1N2Cc1ccncc1	-0.7	-6.8	1.8
C[C@@H]1CC=CC[C@H](c2ccccc2)NC(=O)[C@H](C)N(C)C(=O)c2ccccc2O1 (mixture of isomers)	-2.8	-11.5	-0.9
C[C@H]1CN([C@@H](C)CO)C(=O)c2cc(C3=CCCC3)cnc2O[C@H]1CN(C)Cc1ccccc1	-2.4	-9.7	0.3
C/C=C/c1ccc([C@@H]2[C@@H](CO)N3CCCCN(S(=O)(=O)c4cccs4)C[C@H]23)cc1	-29.4	-70.8	2.4
N#Cc1ccc(-c2cccc(-c3nc(C(=O)O)cc4c3[C@@H](CCO)N(CC3CCOCC3)C4)c2)cc1	4.6	11.8	-2.3
CN1C(=O)c2cc(NC(=O)c3cccs3)ccc2OC[C@@H]2O[C@H](CC(=O)NCC(F)(F)F)CC[C@@H]21	-1.2	-2.1	-0.7
CN(C)CC(=O)Nc1ccc2c(c1)[C@H]1C[C@@H](CC(=O)NCc3ccc4c(c3)OCO4)O[C@H](CO)[C@H]1O2	1.0	5.7	-0.5
C[C@@H]1CN([C@H](C)CO)C(=O)c2cc(-c3cccnc3)cnc2O[C@@H]1CN(C)C(=O)C1CCCCC1	1.6	7.4	-4.7
O=S(=O)(c1ccccc1)N1CCCCN2[C@H](CO)[C@H](c3ccc(C#Cc4ccccc4)cc3)[C@H]2C1	-7.7	-30.7	8.3
C[C@H](CO)N1C[C@H](C)[C@H](CN(C)C(=O)C2CC2)Oc2cc(C#CCN(C)C)ccc2S1(=O)=O	3.3	10.7	-1.4
COc1ccccc1-c1cn(CC[C@@H]2CC[C@H](NC(=O)C3CCCC3)[C@H](CO)O2)nn1	-3.2	-4.7	2.5
O=C(Nc1ccc(F)cc1)N1C[C@H]2[C@@H](c3ccccc31)[C@H](CO)N2C(=O)c1ccccn1	1.0	2.8	-0.3
CO[C@@H]1CN(C)C(=O)c2cc(NS(=O)(=O)c3ccc(Cl)cc3)ccc2OC[C@H](C)N(C)C[C@H]1C	-1.7	0.9	-2.0
C[C@@H]1CN([C@@H](C)CO)C(=O)c2cc(N(C)C)ccc2O[C@@H](C)CCCCO[C@@H]1CN(C)S(=O)(=O)c1ccccc1	-3.3	-6.1	-5.1
CCCNC(=O)[C@@H]1[C@@H](CO)[C@@H]2Cn3c(ccc(C4=CCCC4)c3=O)[C@H]1N2	4.5	4.9	0.2
C[C@@H]1CN([C@H](C)CO)C(=O)Cc2cc(NS(=O)(=O)c3ccc(F)cc3)ccc2O[C@H]1CN(C)C(=O)Nc1ccc2c(c1)OCO2	4.3	8.1	3.2
COCC(=O)N1CCC2(CC1)CN(Cc1ccccc1Cl)[C@@H](CO)c1c2c2ccc(OC)cc2n1C	5.0	-9.0	0.8
CC(C)NC(=O)N(C)C[C@@H]1Oc2ccc(NS(C)(=O)=O)cc2C(=O)N([C@@H](C)CO)C[C@@H]1C	3.5	12.1	-2.5
C/C=C/c1ccc(C2[C@H]3CNC[C@@H]2N3Cc2ccccc2C(F)(F)F)cc1 (stereo partly drawn)	-4.6	-19.1	2.6
The listing continues.
SMILES	rRNA inh HTS	rRNA inh HTS OD600	rRNA inh HTS RFP
O=C(C1CCCC1)N1CC2(C1)[C@H](c1ccccc1)[C@@H](CO)N2Cc1nccs1	-0.3	13.4	-2.3
COc1ccccc1C#Cc1ccc2c(c1)[C@H]1NCC[C@H]1[C@@H](CO)N2	-3.5	2.4	-6.4
C[C@@H]1CN([C@@H](C)CO)C(=O)c2ccccc2-c2ccccc2CO[C@@H]1CN(C)C(=O)CCC(F)(F)F	-1.3	-3.4	-3.0
CCCC(=O)N1CC2(CCN(C(=O)CC3CC3)CC2)c2c(n(C)c3cc(OC)ccc23)[C@@H]1CO	-4.5	4.2	-0.9
COc1ccc2c3c([nH]c2c1)[C@H](CO)N(C(C)=O)CC31CN(C(=O)Nc2ccccc2F)C1	0.8	-4.9	-0.7
C[C@@H]1CN([C@@H](C)CO)C(=O)c2cc(-c3ccc(F)cc3)cnc2O[C@@H]1CN(C)C(=O)c1ccncc1	2.5	2.4	-2.7
CC(C)CC#Cc1ccc([C@@H]2[C@H]3CN(C(=O)NC(C)C)CC(=O)N3[C@H]2CO)cc1	8.4	-3.9	16.9
CN1c2ccc(-c3ccccc3)cc2[C@@H]2[C@@H](CCN2C(=O)c2ccncc2)[C@H]1CO	-4.4	-4.0	0.7
Cc1noc(C)c1NC(=O)Nc1ccc2c(c1)C(=O)N([C@H](C)CO)C[C@H](C)[C@H](CN(C)S(=O)(=O)c1ccccc1)O2	0.3	2.0	-0.8
CO[C@H]1CN(C)C(=O)c2cc(NS(C)(=O)=O)ccc2OC[C@@H](C)N(C(=O)CC2CC2)C[C@@H]1C	0.9	-0.6	-1.3
CN(C)CC#Cc1ccc([C@@H]2[C@@H](CO)N3C(=O)CN(C(=O)c4cccc(F)c4)C[C@@H]23)cc1	2.7	5.5	-0.7
CCCN(C)C[C@@H]1Oc2cc(C#CC3CCCCC3)ccc2S(=O)(=O)N([C@@H](C)CO)C[C@H]1C	-4.0	5.3	4.7
COCC(=O)N(C)C[C@H]1Oc2cc(C#CC3CCCC3)ccc2S(=O)(=O)N([C@@H](C)CO)C[C@H]1C	-1.3	-5.6	2.0
Cc1noc(C)c1S(=O)(=O)N1[C@@H]2CNC[C@H]1C2c1ccc(-c2ccccc2)cc1 (stereo partly drawn)	2.8	5.3	2.3
Cc1noc(C)c1NC(=O)Nc1cccc2c1O[C@@H](CN(C)S(=O)(=O)c1ccccc1)[C@H](C)CN([C@H](C)CO)C2=O	1.8	2.3	-0.3
COc1cccc(NC(=O)C[C@@H]2CC[C@H]3[C@H](COc4ccc(NC(=O)C5CCOCC5)cc4C(=O)N3C)O2)c1	-1.1	0.9	-2.5
N#Cc1cccc(-c2ccc(C3[C@@H]4CN(S(=O)(=O)c5cccc(Cl)c5)C[C@H]3N4)cc2)c1 (stereo partly drawn)	-38.1	-54.6	18.1
C[C@H]1CCCCO[C@@H](CN(C)S(=O)(=O)c2cccs2)[C@@H](C)CN([C@@H](C)CO)C(=O)c2cc(NS(=O)(=O)c3ccccc3)ccc2O1	-4.9	-1.5	-1.7
C[C@@H]1CN([C@@H](C)CO)S(=O)(=O)c2ccc(C#CC3CC3)cc2O[C@H]1CN(C)Cc1cncnc1	-8.0	-16.4	3.7
CO[C@@H]1CN(C)C(=O)c2cc(NC(=O)Nc3c(C)noc3C)ccc2OC[C@@H](C)N(C)C[C@H]1C	4.0	-2.0	-0.3
CC=Cc1ccc2n(c1=O)C[C@H]1[C@H](CO)[C@@H](C(=O)NCCc3cn(C)cn3)N(C(=O)C3CCCC3)[C@@H]21 (mixture of isomers)	-0.1	-5.8	1.5
COCC(=O)N(C[C@H]1N[C@H](CO)[C@H]1c1ccc(C2=CCCC2)cc1)C(C)C	1.0	-0.4	0.0
COc1ccc(C#Cc2ccc([C@H]3[C@@H](CO)N4C(=O)CN(C(=O)c5ccc(F)cc5)C[C@H]34)cc2)cc1	-1.9	-15.9	2.5
CCNC(=O)C[C@@H]1CC[C@@H]2[C@H](COc3ccc(NC(=O)c4ccccc4)cc3C(=O)N2C)O1	3.9	6.5	0.0
C[C@@H]1CN([C@@H](C)CO)C(=O)Cc2cc(N(C)C)ccc2O[C@H]1CN(C)Cc1ccc(Oc2ccccc2)cc1	-50.8	-70.2	-12.8

7 entries drawn at random from those above, as already listed:
SMILES	rRNA inh HTS	rRNA inh HTS OD600	rRNA inh HTS RFP
C[C@H]1CCCCO[C@@H](CN(C)S(=O)(=O)c2cccs2)[C@@H](C)CN([C@@H](C)CO)C(=O)c2cc(NS(=O)(=O)c3ccccc3)ccc2O1	-4.9	-1.5	-1.7
COCC(=O)N(C[C@H]1N[C@H](CO)[C@H]1c1ccc(C2=CCCC2)cc1)C(C)C	1.0	-0.4	0.0
CCCC(=O)N1CC2(CCN(C(=O)CC3CC3)CC2)c2c(n(C)c3cc(OC)ccc23)[C@@H]1CO	-4.5	4.2	-0.9
Cc1noc(C)c1NC(=O)Nc1cccc2c1O[C@@H](CN(C)S(=O)(=O)c1ccccc1)[C@H](C)CN([C@H](C)CO)C2=O	1.8	2.3	-0.3
CCCN(C)C[C@@H]1Oc2cc(C#CC3CCCCC3)ccc2S(=O)(=O)N([C@@H](C)CO)C[C@H]1C	-4.0	5.3	4.7
CO[C@H]1CN(C)C(=O)c2cc(NS(C)(=O)=O)ccc2OC[C@@H](C)N(C(=O)CC2CC2)C[C@@H]1C	0.9	-0.6	-1.3
C[C@@H]1CN([C@@H](C)CO)C(=O)Cc2cc(N(C)C)ccc2O[C@H]1CN(C)Cc1ccc(Oc2ccccc2)cc1	-50.8	-70.2	-12.8

(listing goes on)
SMILES	rRNA inh HTS	rRNA inh HTS OD600	rRNA inh HTS RFP
CN(C)CC#Cc1ccc([C@H]2[C@H]3CN(C(=O)c4cccnc4)CC(=O)N3[C@H]2CO)cc1	0.4	2.3	-2.2
COc1ccc(-c2ccc([C@@H]3[C@@H](CO)N4C(=O)CN(Cc5ccc(C)cc5)C[C@H]34)cc2)cc1	-0.4	-6.0	0.2
C[C@@H]1CCCCO[C@H](CN(C)Cc2ccc(C(F)(F)F)cc2)[C@@H](C)CN([C@@H](C)CO)C(=O)c2cc(NS(=O)(=O)c3ccccc3)ccc2O1	-12.5	-35.4	17.9
CCCNC(=O)C[C@H]1CC[C@H]2[C@H](COc3ccc(NS(=O)(=O)c4ccccc4C)cc3C(=O)N2C)O1	0.4	-3.8	-1.0
O=C(C1CC1)N1CC(=O)N2[C@H](CO)[C@@H](c3ccc(C#Cc4cccc(F)c4)cc3)[C@H]2C1	-5.1	-51.5	34.0
O=C(NC1CCCC1)N1CC(=O)N2[C@H](CO)[C@@H](c3ccc(-c4ccncc4)cc3)[C@H]2C1	-0.1	9.4	-1.5
COCC(=O)N1CC2(C1)CN(C(=O)NC1CCCC1)[C@@H](CO)c1c2c2ccc(OC)cc2n1C	2.9	0.1	-2.4
Cc1noc(C)c1S(=O)(=O)Nc1ccc2c(c1)C(=O)N([C@H](C)CO)C[C@@H](C)[C@@H](CN(C)C(=O)CCC(F)(F)F)OCCCC[C@@H](C)O2	0.1	-5.2	-0.3
Cc1cccc(-c2ccc(C3[C@@H]4CN(C(=O)C5CCCC5)C[C@H]3N4)cc2)c1 (stereo partly drawn)	-56.2&-55.1	-78.4&-78.9	-7.6&-6.4
C[C@@H]1CN([C@H](C)CO)C(=O)CCCn2cc(nn2)CO[C@@H]1CN(C)Cc1ccc(C(F)(F)F)cc1	-2.0	0.4	2.2
CCCC(=O)N1CC2(C1)CN(C(=O)COC)[C@@H](CO)c1c2c2ccc(OC)cc2n1C	2.7	8.1	-0.7
C[C@@H]1CN([C@@H](C)CO)C(=O)c2cc(NC(=O)Nc3ccc(C(F)(F)F)cc3)ccc2O[C@@H](C)CCCCO[C@H]1CN(C)S(=O)(=O)c1ccc(F)cc1	-2.1	5.6	-6.2
COc1cccc(NC(=O)N[C@H]2C=C[C@H](CC(=O)NCc3ccccn3)O[C@H]2CO)c1	2.7	6.5	-0.2
COc1ccc(CN(C)C[C@@H]2OCCCC[C@H](C)Oc3ccc(N(C)C)cc3C(=O)N([C@H](C)CO)C[C@H]2C)cc1	0.8	-3.9	-0.8
CCCNC(=O)C[C@@H]1CC[C@H]2[C@H](COc3ccc(NC(=O)c4cccc(Cl)c4)cc3C(=O)N2C)O1	5.6	-5.8	11.0
CC(=O)N(C)C[C@H]1Oc2c(N)cccc2C(=O)N(C)C[C@H]1C	1.8	10.6	-0.6
CN1c2ccc(C3=CCCCC3)cc2[C@@H]2[C@@H](CCN2C(=O)C2CCCCC2)[C@H]1CO	-3.2	-12.9	17.6
CO[C@@H]1CN(C)C(=O)c2ccc(NC(=O)C3CCOCC3)cc2OC[C@H](C)N(C)C[C@H]1C	2.4	1.4	-5.0
CO[C@H]1CN(C)C(=O)c2ccc(NC(=O)C3CCOCC3)cc2OC[C@@H](C)N(C(=O)c2ccccc2)C[C@@H]1C	1.3	0.0	-0.7
COCC(=O)N1CCC2(CC1)CN(Cc1cc(F)ccc1F)[C@@H](CO)c1[nH]c3cc(OC)ccc3c12	4.9	10.5	2.1
C[C@H](O)C#Cc1cnc2c(c1)C(=O)N([C@H](C)CO)C[C@@H](C)[C@H](CN(C)C(=O)c1ccncc1)O2	1.9	13.8	-2.4
C/C=C/c1ccc([C@H]2[C@@H](CO)N(Cc3ccc(F)cc3)[C@H]2CNC(C)=O)cc1	-2.5	-10.8	-1.4
